TRPV1 PAM = HTS Assay for Compounds that Act as Potentiators of the Vanilloid Receptor 1 | hit rate 0.02% among 320,000 | Transient receptor potential cation channel subfamily V member 1 (Homo sapiens), Q8NER1 | potentiation, % at 8.33 µM | TRPV1-expressing cells, Fluo-8 calcium influx, capsaicin EC20 potentiation; host cell line not named in the record; control for the full effect not named in the record; active means potentiation above 80%; inconclusive means 30% to 80%; inactive means below 30%; also: 0% is about no effect
Target sequence (Q8NER1 whole entry, looked up): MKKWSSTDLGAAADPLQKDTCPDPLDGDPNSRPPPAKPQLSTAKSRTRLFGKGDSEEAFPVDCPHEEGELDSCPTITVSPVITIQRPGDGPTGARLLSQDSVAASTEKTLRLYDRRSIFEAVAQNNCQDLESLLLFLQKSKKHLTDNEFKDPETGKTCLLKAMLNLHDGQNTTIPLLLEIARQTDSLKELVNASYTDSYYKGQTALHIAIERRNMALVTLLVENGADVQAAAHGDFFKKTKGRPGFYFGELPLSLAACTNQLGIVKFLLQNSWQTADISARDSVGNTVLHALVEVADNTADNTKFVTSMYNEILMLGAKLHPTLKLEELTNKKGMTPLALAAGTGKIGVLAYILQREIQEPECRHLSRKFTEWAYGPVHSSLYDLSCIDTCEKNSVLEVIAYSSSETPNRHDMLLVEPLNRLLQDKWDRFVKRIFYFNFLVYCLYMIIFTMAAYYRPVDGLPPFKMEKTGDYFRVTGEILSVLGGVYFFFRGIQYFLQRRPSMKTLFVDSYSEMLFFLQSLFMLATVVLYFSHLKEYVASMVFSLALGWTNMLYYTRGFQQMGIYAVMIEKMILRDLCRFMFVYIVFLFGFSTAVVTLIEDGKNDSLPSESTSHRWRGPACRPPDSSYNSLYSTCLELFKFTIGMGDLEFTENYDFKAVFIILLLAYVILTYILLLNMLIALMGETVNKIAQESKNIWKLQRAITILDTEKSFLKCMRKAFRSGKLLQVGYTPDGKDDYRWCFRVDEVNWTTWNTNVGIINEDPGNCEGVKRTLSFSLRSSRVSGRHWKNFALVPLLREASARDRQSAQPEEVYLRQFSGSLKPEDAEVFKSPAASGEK
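Cells expressing TRPV1 were dye-loaded with Fluo-8 and read kinetically: 10 s baseline, 3 min after compound (agonist portion), then 2 min after EC20 capsaicin (allosteric enhancer portion). Calcium-bound dye fluorescence at 480/520 nm.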
gsp antagonist = qHTS for Antagonists of gsp, the Etiologic Mutation Responsible for Fibrous Dysplasia/McCune-Albright Syndrome: qHTS; Potency, µM (titrated, usually from 76.9 µM), inactives show top-dose activity change, negative = inhibition, usual class: inhibitors; AID 624288, 2012; hit rate 0.4% among 340,000; gsp-mutant cells, cAMP HTRF, 30 min; control for the full effect not named in the record; active = falling curve of any shape with a large fitted effect; inconclusive = falling curve, mostly with a smaller effect; inactive = flat or rising curve; cell line not stated here;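 also: intracellular cAMP measured with PDE inhibitor Ro 20-1724 present during compound exposure; potency is read from the fitted curve at half-maximal effect; % is scaled to controls: 0 for no effect and ±100 for the full control effect; nearly all actives have a fitted effect of over 65% in size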
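HTRF cAMP measurement after 30 min RT detection following 30 min, 37C compound treatment alongside […] (added as 300 uM solution) in G418-selected cells seeded at 2000/well and grown 16–24 h.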
ClpP mod = qHTS Assay for Activators of ClpP. ATP-dependent Clp protease proteolytic subunit (Bacillus subtilis (strain 168)), P80244. purified B. subtilis ClpP, FRET peptide cleavage, 20 min. Potency, µM (titrated, usually from 57.5 µM), for the others: top-dose activity change, negative = active. hit rate 1.9% among 340,000. AID 651965, 2013; active = well fitted falling curve with a large enough effect; inconclusive = small, poorly fitted or top-dose-only effect; inactive = no such curve, though single readings can be large or run the other way; also: potency is read from the fitted curve at half-maximal effect; the source files actives as falling curves though it sought activators and does not explain the sign; nearly all actives have a fitted effect of over 65% in size; many hits overshoot -100%
Target sequence (P80244 whole entry, looked up): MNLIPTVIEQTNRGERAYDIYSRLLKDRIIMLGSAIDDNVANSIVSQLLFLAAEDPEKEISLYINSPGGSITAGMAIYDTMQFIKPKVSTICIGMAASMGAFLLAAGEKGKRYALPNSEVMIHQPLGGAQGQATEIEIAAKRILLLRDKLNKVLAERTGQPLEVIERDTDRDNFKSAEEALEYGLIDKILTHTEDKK
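Purified B. subtilis ClpP, 10 microg/mL final in Tris/HCl pH8 with KCl, BSA, glycerol and Tween-20, cleaved an Abz/nitrotyrosine-quenched decapeptide. Fluorescence (ex 320, em 430) was read at 0 and 20 min at room temperature. Delta was normalized to 5.8 microM ADEP and DMSO/no-enzyme controls.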
Sfp inh = qHTS Assay for Inhibitors of Bacillus subtilis Sfp phosphopantetheinyl transferase (PPTase); hit rate 3.5% among 310,000; Biochemical Sfp PPTase activity, qHTS; Potency, µM, for inactives: max response, negative = inhibition, hits mostly inhibitors; 4'-phosphopantetheinyl transferase ffp (Bacillus subtilis), Q9F4F7; active = well fitted inhibition curve with a large enough effect; inconclusive = small, poorly fitted or top-dose-only effect, or another doubt; inactive = no such curve, though single readings can be large or run the other way;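 also: the enzyme is Sfp with the accession as filed and its product quenches rhodamine fluorescence; potency is read from the fitted curve at half-maximal effect; 0% = enzyme reaction without inhibitor and -100% = no enzyme wells; top concentration of the series not given in the record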
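Fluorescence-quenching assay with 15 nM Sfp, 5 uM rhodamine-CoA and 12.5 uM BHQ-2-labelled ybbR peptide in pH 7.6 Hepes/MgCl2 buffer. Enzyme was pre-incubated with compound for 15 min at room temperature. Rate was taken from the 30-min fluorescence change (525/598 nm).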
gsp agonist = qHTS for Agonist of gsp, the Etiologic Mutation Responsible for Fibrous Dysplasia/McCune-Albright Syndrome: qHTS. hit rate 0.13% among 340,000. Potency, µM (highest dose often 76.9 µM), without a hit: at the highest dose activation (cAMP increase), usual class: activators. gsp mutant cells, cAMP HTRF, 30 min; control for the full effect not named in the record; active = well fitted activation curve with a large enough effect; inconclusive = small, poorly fitted or top-dose-only effect, or another doubt; inactive = no such curve, though single readings can be large or run the other way; cell line not stated here;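 also: phosphodiesterase inhibitor Ro 20-1724 added with compounds to block cAMP breakdown; potency is read from the fitted curve at half-maximal effect; nearly all actives have a fitted effect of over 60% in size; about a fifth of the inactives were tested at one dose only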
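Cells stably selected in G418 were plated at 2000/well, grown 16-24 hr, then given compounds in DMSO with the PDE inhibitor […] (300 uM solution added) for 30 min at 37C; cAMP was read by HTRF.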
CtBP-E1A blk = qHTS Assay for Inhibitors of the CtBP/E1A Interaction | AlphaScreen GST-E1A/His-CtBP binding, 1536-well; active compounds read low; control for the full effect not named in the record | activity change, % (concentration not given with the values) | hit rate 0.49% among 340,000; in the data active means activity change below about -65%; inconclusive means about -30% to -65%; inactive means above about -30%; also: % is scaled to controls: 0 for no effect and ±100 for the full control effect
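Homogeneous bead-based format: GST-tagged E1A captured on glutathione donor beads, His-tagged CtBP on nickel acceptor beads; compounds precede bead addition by 2 h at 37 °C.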
Menin-MLL FL inh = qHTS Assay for Inhibitors Targeting the Menin-MLL Interaction in MLL Related Leukemias: Competition With Fluorescein Labeled MLL-derived Peptide. 290,000 tested, under 10 active. Fluorescence polarization, fluorescein-MLL peptide displacement from menin. FP activity change, % at 61.4 µM. AID 1766, 2009; inconclusive = falling polarisation curve, or a change in total fluorescence; inactive = total fluorescence flat and polarisation flat or rising; no compound was filed as active; the % refers to the polarisation; negative = inhibition;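 also: % of control where 0% means no effect; inhibitors lower the polarisation; unlabelled MLL peptide was the positive control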
* hit, by the source's call; ? = inconclusive; / = no result given; [ ] = remark or other dose.

SMILES	TRPV1 PAM	gsp antagonist	ClpP mod	Sfp inh	gsp agonist	CtBP-E1A blk	Menin-MLL FL inh
O=C(CNC(=O)c1ccccc1Br)N/N=C/c1ccco1	1	6%	0.2%	2%	15%[15.4 µM]	8	-6.7
O=C(COC(=O)c1cc2ccccc2oc1=O)Nc1cccc(Br)c1	-10	6%	-9.8%	/	13%	-23	/
O=C(COC(=O)c1ccccn1)NCc1ccccc1	-1	2%	0.2%	2%	-19%	10	2.6
CC(C)Cn1nc(C(=O)Nc2cccc(C(=O)NC3CC3)c2)c2ccccc2c1=O	-13	-21%	-3.4%	/	4%	-8	/
CC(C)c1cc(C(=O)N/N=C/C(Br)=C/c2ccccc2)n[nH]1	-4	-1%	-3.4%	4%	5%	/	9.8
Nc1nc2n(c1C(=O)c1ccccc1)CCC2	-8	1%	-3.5%	5%	-50%[inhibitor]	-5	1.4
COc1cc(Br)cc(/C=N/c2ncn[nH]2)c1O	-2	-11%	-1.1%	-4%	-25%	-11	20
O=C(O)c1ccccc1Cc1nc2cc(Cl)ccc2c(=O)[nH]1	-5	-29%	-12%	24%	0%[15.4 µM]	4	-1.8
Cn1cc(C(=O)N/N=C/C(Br)=C\c2ccccc2)ccc1=O	/	11%	-3.8%	-8%	6%	?	2.6
c1ccc(CN2CCC(Nc3nc(-c4ccccc4)nc4ccccc34)CC2)cc1	24	-12%	-1.0%	-1%	3%	0	2.3

Complete entries, looked up by structure.
Shown for `COc1cc(Br)cc(/C=N/c2ncn[nH]2)c1O` → TRPV1 PAM: -2; gsp antagonist: -11%; ClpP mod: -1.1%; Sfp inh: -4%; gsp agonist: -25%; CtBP-E1A blk: -11; Menin-MLL FL inh: 20
Shown for `O=C(COC(=O)c1cc2ccccc2oc1=O)Nc1cccc(Br)c1` → TRPV1 PAM: -10; gsp antagonist: 6%; ClpP mod: -9.8%; Sfp inh: /; gsp agonist: 13%; CtBP-E1A blk: -23; Menin-MLL FL inh: /

Part of the list above in order of heavy-atom count, descending:
SMILES	TRPV1 PAM	gsp antagonist	ClpP mod	Sfp inh	gsp agonist	CtBP-E1A blk	Menin-MLL FL inh
c1ccc(CN2CCC(Nc3nc(-c4ccccc4)nc4ccccc34)CC2)cc1	24	-12%	-1.0%	-1%	3%	0	2.3
CC(C)c1cc(C(=O)N/N=C/C(Br)=C/c2ccccc2)n[nH]1	-4	-1%	-3.4%	4%	5%	/	9.8
O=C(COC(=O)c1ccccn1)NCc1ccccc1	-1	2%	0.2%	2%	-19%	10	2.6
COc1cc(Br)cc(/C=N/c2ncn[nH]2)c1O	-2	-11%	-1.1%	-4%	-25%	-11	20

(next part)
SMILES	TRPV1 PAM	gsp antagonist	ClpP mod	Sfp inh	gsp agonist	CtBP-E1A blk	Menin-MLL FL inh
CCc1cccc2c(C(=O)COC(=O)c3nccnc3N)c[nH]c12	1	-9%	28µM*	/	0%[15.4 µM]	-5	/
Cc1c(CC(=O)Nc2ccc(Cl)cc2)sc2ccc(Cl)cc12	10	-3%	0.4%	20%	16%	/	3.1
Clc1ccc(OCc2nc(-c3ccc(Br)o3)no2)cc1	?	-5%	2.2%	-15%	-40%[inhibitor]	26	6.9
CC1(C)CC(=O)C/C(=N/NC(=O)CCCOc2ccc(Cl)cc2Cl)C1	19	-1%	-5.4%	16%	7%	3	-2.0
CC1CCCCC1NC(=O)C1CCCN(S(=O)(=O)c2ccc(-n3cnnn3)cc2)C1 (centres undefined)	0	6%	-1.5%	-2%	2%[15.4 µM]	-16	-0.2
COc1cc2cc(CN(Cc3nnnn3Cc3ccccc3)CC3CCCO3)c(=O)[nH]c2cc1OC (centres undefined)	?	7%	28µM*	56µM*	7%	2	0.1
CCc1c(C)nc(N2CCN(c3ccccc3)CC2)[nH]c1=O	9	0%	-2.9%	-10%	-7%	/	-1.6
Cc1ccc(C)c(OCCC(=O)N2CCN(S(=O)(=O)c3ccc([N+](=O)[O-])cc3)CC2)c1	-19	-1%	-0.5%	/	7%	/	/
CCCC(c1nnnn1Cc1cccs1)N1CCN(c2ccc(OC)cc2)CC1 (centres undefined)	0	-9%	-0.6%	-2%	-35%[inhibitor]	-30	-0.5
CCOC(=O)Cc1csc(NC(=O)Nc2ccc(Cl)cc2)n1	-5	-32%	0.7%	20%	-2%[15.4 µM]	2	1.5
Cc1cc(C(=O)N/N=C/c2ccc(-c3cccc(Br)c3)o2)n[nH]1	0	1%	3.9%	18%	5%	/	8.8
COCCNc1nc(-c2ccc(OC)cc2)c(-c2ccc(OC)cc2)s1	-6	?	-14%	?	-17%	/	4.6
CC(=O)c1ccccc1C(=O)N1CCCC(N2CCN(Cc3ccc4c(c3)OCO4)CC2)C1 (centres undefined)	3	5%	-1.9%	16%	-75%	1	/
Cc1ccc(NC(=O)Nc2ccno2)cc1	/	0%	-3.9%	16%	-13%	/	1.1
O=C(NNc1cccc(Cl)n1)Nc1cccc(Cl)c1	28	3%	0.1%	-20%	?	4	-5.2
COc1ccc(-c2cc(C(F)(F)F)n3ncc(C(=O)NCC4CCCO4)c3n2)cc1 (centres undefined)	1	-5%	?	12%	24%	-2	2.5
COc1ccc(OC)c(-c2csc(NC(=O)CSCC(=O)Nc3cc(C)on3)n2)c1	-7	-22%	9.3%	/	-6%	/	/
CC(=O)Nc1ccc(NC(=O)/C=C/c2ccc3c(c2)OCO3)cc1	-22	1%	/	15%	17%[15.4 µM]	28	-0.3
Cc1cc(NC(=O)c2cc3ncc(Br)cn3n2)no1	-18	-16%	-4.1%	6%	-11%	-1	-0.9
O=C(CNC(=O)c1ccccc1F)OC(C(=O)Nc1cc(C(F)(F)F)ccc1Cl)c1ccccc1 (centres undefined)	-2	12%	-1.5%	9%	?	8	3.7
COc1ccccc1NC1=NCC(=O)N1Cc1ccccc1	1	-3%	0.0%	-14%	-12%	-3	1.3
COc1ccc(Br)c(C(=O)NC2CCCC2)c1	6	8%	1.2%	7%	-37%[inhibitor]	2	4.6
Cc1cnc(C(=O)N2CCN(S(=O)(=O)c3ccc4ccccc4c3)CC2)cn1	-4	-13%	-4.6%	-25%	5%	-2	-2.7
Cc1ccc(C(=O)COC(=O)c2ccccc2N2C(=O)C3C4CCC(C4)C3C2=O)cc1C (centres undefined)	8	-14%	-1.4%	0%	?	5	2.4
O=C1CN(C(=O)COC(=O)COc2ccc3c(c2)CCC3)c2ccccc2N1	13	-11%	-3.3%	9%	-3%	-2	-1.3
COCC(=O)N[C@@H]1c2cc(OC)c(OC)cc2C[C@H]1OCc1ccccc1	/	10%	-11%	/	/	3	/
O=C1CC(c2ccccc2)CC(O)=C1C=Nc1ccccc1 (centres undefined)	-14	-9%	/	12%	-4%[15.4 µM]	4	-1.8
CCOC(=O)c1cc(-c2ccccc2)sc1NC(=O)CC(C)C	-9	-19%	-3.4%	-1%	-24%	30	7.4
COc1cccc(-n2c(C)nn(C)c2=O)c1	-14	0%	1.1%	6%	-41%[inhibitor]	1	-1.2
CCOc1ccccc1CN1CCC(Oc2cccc(C(=O)NCCOC)c2)CC1	2	-3%	/	20%	-37%[inhibitor]	1	-2.5
CCCOc1ccc(C(=O)Nc2ccc(N3CCOCC3)cc2N2CCOCC2)cc1OCC	/	/	-2.6%	/	-2%	-25	/
Cc1ccc(CNC(=O)c2ccc(N3CCCC3=O)cc2)cc1	18	12%	-1.1%	10%	-10%	3	2.4
Cc1cccc(C)c1NC(=O)C1CCCN1C(=O)NCc1ccccc1 (centres undefined)	-5	19%	/	12%	-9%[15.4 µM]	-8	-0.5
CCOC(=O)CSC1=C(C#N)C(c2ccc(C)cc2)C(C(=O)OC)C(=O)N1 (centres undefined)	-12	-21%	1.5%	-8%	11%	1	5.8
COC1(c2ccccc2)NC(=S)NN=C1c1ccccc1 (centres undefined)	-3	-17%	0.3%	-1%	6%	?	2.4
COc1ccc(C(=O)Nc2ccc(NC(C)=O)cc2)cc1S(=O)(=O)N1CCCCC1C (centres undefined)	0	-8%	0.5%	/	-31%[inhibitor]	1	/
N#CCSc1nn(-c2ccc(F)cc2)c(=S)s1	0	-14%	-3.4%	-6%	-36%[15.4 µM]	-1	9.7
Cc1ccc(S(=O)(=O)N2CCCC2)s1	-15	9%	-4.2%	11%	?	-12	-1.6
NC(N)=Nc1nc2ccc(Cl)cc2c(=O)[nH]1	-2	9%	/	13%	16%	-22	4.4
Cc1ccc(S(=O)(=O)N2C[C@]3(O)C[C@@H]4C(=O)N(c5ccccc5)C(=O)[C@@H]4C[C@]3(OC(=O)Nc3c(C)noc3C)C2)cc1	/	/	0.3%	/	-13%	-5	/
CCOc1cccc(NC(=O)C2CC(=O)N(C)C(=Nc3ccccc3)S2)c1 (centres undefined)	-6	?	-2.0%	0%	-58%[inhibitor]	-16	3.2
O=C(c1ccccc1)c1ccsc1C(=O)c1ccccc1	/	/	-4.5%	/	21%	0	/
CCCNC(=O)c1cc2c3ccccc3n(C)c2s1	-14	-18%	?	?	16%	-4	-0.8
CC1(C)CC(=O)C2=C(C1)N(Cc1ccccc1)C(=O)C2(O)C(F)(F)F (centres undefined)	-8	0%	1.4%	22%	-12%	-1	3.1
O=C(c1cc(-c2ccccc2)on1)N1CCN(C(=O)c2ccco2)CC1	-4	4%	-1.0%	-11%	-2%	3	2.1
Cn1c(-c2ccc3c(c2)OCO3)cnc1NCc1ccccc1Cl	3	-3%	-20%	-11%	39%	/	-0.1
O=C(Nc1ccccn1)c1ccc(Cl)s1	-10	0%	-1.7%	8%	0%	1	-4.1
